# Rango dissoc inh: prevents RanGTP from dissociating the Rango-importin beta complex; O95149+P62826; Biochemical FRET Rango-importin beta, RanGTP-induced dissociation; Potency, µM (highest dose often 46.1 µM), without a hit: at the highest dose activity change, negative = inhibition; 340,000 tested, 0.071% active; active means falling FRET ratio curve, often poorly fitted, with flat reads before Ran was added; inconclusive means other falling curves, or compound fluorescence or quenching; inactive means flat or rising ratio curve;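 also: potency is read from the fitted curve at half-maximal effect; % of control where 0% means no effect; nearly all actives have a fitted effect of over 45% in size; -100% = wells without RanGTP and RCC1; the record marks most hits as doubtful in a second field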
#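 Quantitative HTS using a FRET biosensor: 0.1 uM Rango, 0.25 uM importin beta, 0.6 uM Ran, 2 mM GTP, 0.2 uM RCC1 final, PBS with DTT, Tween-20 and BSA. Post-read taken 45 min after Ran addition.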
# miR-21 reporter: miR-21 reporter, rising signal; HeLa miR-21 FLuc reporter, luciferase, 48 h; Potency, µM (top dose mostly 38.3 µM), for inactives: top-dose reporter change, positive = more light; 340,000 tested, under 10 active; active = well fitted rising curve with a large enough effect; inconclusive = small, poorly fitted or top-dose-only effect; inactive = no such curve, though single readings can be large or run the other way;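 also: % of control where 0% means no effect; miR-21 action dims this reporter so a rising signal means less miR-21 action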
#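 Using DMEM plus 10% FBS, HeLa miR-21-FLuc cells are incubated with test compounds (final up to about 40uM) for 48 hours; firefly luciferase signal is then imaged following reagent-mediated lysis.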
# GLA inh pH 4.5: alpha-galactosidase A (human) inhibition, pH 4.5 | purified enzyme, 4-MU-alpha-Gal fluorescence, pH 4.5 | activity change, negative = inhibition, % at 105 µM | 230,000 tested, under 10 active | AID 1467; inconclusive = small, poorly fitted or top-dose-only inhibition, or a rising curve; inactive = flat fitted curve, though single readings scatter; no compound was filed as active;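 also: 0% = full activity with enzyme and -100% = basal without enzyme; dose as in the result columns while the protocol names 77 µM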
# Rango complex inh: prevents formation of the Rango-importin beta complex; Q14974; Rango CFP/YFP FRET sensor + importin beta, 45 min; Potency, µM (highest dose often 92.2 µM), without a hit: at the top dose inhibition of complex formation; 340,000 tested, 0.031% active; AID 540263; active = rising FRET ratio curve, often small or poorly fitted; inconclusive = mostly compound fluorescence or quenching in the first reads; inactive = flat curves in all reads;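 also: potency is read from the fitted curve at half-maximal effect; 0% = DMSO wells and 100% = buffer wells lacking importin beta; nearly all actives have a fitted effect of over 15% in size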
# Target sequence (Q14974 whole entry, looked up): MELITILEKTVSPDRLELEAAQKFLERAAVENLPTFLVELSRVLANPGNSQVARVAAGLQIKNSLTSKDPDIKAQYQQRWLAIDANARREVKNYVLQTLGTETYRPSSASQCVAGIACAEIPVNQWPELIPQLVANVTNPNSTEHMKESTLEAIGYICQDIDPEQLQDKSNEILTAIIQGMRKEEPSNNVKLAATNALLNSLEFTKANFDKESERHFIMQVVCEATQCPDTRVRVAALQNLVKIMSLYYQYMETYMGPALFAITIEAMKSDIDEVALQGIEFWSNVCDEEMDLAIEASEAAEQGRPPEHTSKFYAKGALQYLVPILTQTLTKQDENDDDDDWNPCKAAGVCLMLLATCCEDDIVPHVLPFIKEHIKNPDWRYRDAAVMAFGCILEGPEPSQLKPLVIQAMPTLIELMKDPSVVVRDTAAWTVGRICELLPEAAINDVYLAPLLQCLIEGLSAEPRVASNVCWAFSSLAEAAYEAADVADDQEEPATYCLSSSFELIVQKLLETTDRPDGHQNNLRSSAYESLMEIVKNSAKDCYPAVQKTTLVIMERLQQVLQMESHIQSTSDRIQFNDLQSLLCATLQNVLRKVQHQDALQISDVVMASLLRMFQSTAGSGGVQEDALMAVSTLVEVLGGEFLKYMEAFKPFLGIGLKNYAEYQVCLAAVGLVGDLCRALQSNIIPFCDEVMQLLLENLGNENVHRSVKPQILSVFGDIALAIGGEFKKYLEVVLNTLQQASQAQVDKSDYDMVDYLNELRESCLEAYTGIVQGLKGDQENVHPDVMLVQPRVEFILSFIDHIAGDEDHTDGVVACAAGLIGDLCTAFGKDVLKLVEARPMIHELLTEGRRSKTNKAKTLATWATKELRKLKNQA
#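 FRET biosensor (snurportin 1 IBB flanked by EYFP and cerulean), 50 nM, with compound 5 min, then 0.125 microM importin beta in PBS, 1 mM DTT, 0.02% Tween-20, 0.1% BSA. CFP/YFP ratio read after 45 min at room temperature; pre-read flags interference.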
# * marks the source's active call; other numbers are inactive results; u = inconclusive; x = no result given; & = joins results of further samples. These rows are one share of the data, so the mix of outcomes need not match the whole.
SMILES,Rango dissoc inh,miR-21 reporter,GLA inh pH 4.5,Rango complex inh
Cc1ccnc(NC(=O)c2oc3ccccc3c2C)c1,8.1%,x,x,0.0%
O=C1c2ccc(Cl)cc2S(=O)(=O)c2cccc(C(=O)N3CCC(Cc4ccccc4)CC3)c21,-14.5%,x,x,2.2%
O=S(=O)(c1ccccc1)c1ccc(NCc2ccco2)cc1,0.8%,1.4%,-2.6,-0.9%
Cc1nn(Cc2ccc(F)cc2)c2sc(C(=O)Nc3ccc(N4CCOCC4)cc3N3CCOCC3)cc12,6.7%,-27.3%,-3.9,-2.7%
CC1(C)Cc2nc3nc(SCC(=O)NCCc4ccccc4)n(-c4ccccc4)c(=O)c3cc2CO1,6.8%,-0.3%,-3.9,-0.2%
O=C(N/N=C/c1ccccc1Br)C1CC1,2.7%,-10.5%,4.5,-0.3%
Cc1ccccc1OCC(=O)Nc1ccc(N2CCN(C)CC2)c(Cl)c1,-5.9%,-57.5%,x,1.6%
COc1ccc(N2CCN(/C(=N\S(=O)(=O)c3ccccc3)Nc3nc(C)cc(C)n3)CC2)cc1,-19.4%,-8.7%,-2.5,2.0%
O=S(=O)(NCC1CCCO1)c1ccc(S(=O)(=O)N(Cc2ccc(F)cc2)Cc2ccco2)cc1 (stereo not drawn),3.8%,-6.5%,-2.5,0.6%
COCCNC(=O)c1n[nH]c2ccccc12,25.5%,-20.5%,-5.1,3.1%
COc1ccc(-c2cc(C(=O)NC3CCCC3)no2)cc1,9.4%,-61.1%,x,1.1%
O=C(CN1CCN(Cc2ccccc2)CC1)Nc1cccc(Br)c1,2.4%,-20.4%,x,-1.1%
Cc1[nH][nH]c(=O)c1C(c1ccc(Cl)cc1)c1c(C)[nH][nH]c1=O,-14.3%,-1.2%,x,5.5%
COc1cc(C2C(C(C)=O)=C(O)C(=O)N2Cc2ccccc2)ccc1O (stereo not drawn),-1.0%,-4.5%,x,-0.9%
COc1ccc(C(=O)O/N=C(\C)c2ccccc2)cc1,4.5%,-23.8%,4.5,-0.4%
N#C/C=C1\n2c(nc3ccccc32)OC12CCCCC2,0.3%,-22.5%,5.4,-1.9%
Cc1cc(C)c(OCC(=O)OCC(=O)NC2CCC(C)CC2)c(C)c1 (stereo not drawn),4.2%,x,x,-0.9%
Cn1cccc1C(=O)OCC(=O)Nc1ccc2c(c1)CCC2,12.1%,-54.1%,-5.2,-2.2%
Cc1cc(=O)oc2ccc(OCC(=O)O)cc12,5.4%,-1.2%,2.3,-2.1%
CCN(CCn1cccn1)Cc1ccccc1OCC(O)CN1CCc2ccccc2C1 (stereo not drawn),-1.2%,-0.5%,-1.4,-0.4%
CNc1ncnc2c1cnn2C1CCCCO1 (stereo not drawn),19.2%,x,x,-2.2%
O=C(NCCCN1CCOCC1)NC12CC3CC(CC(C3)C1)C2,-1.5%,-4.6%,3.9,0.1%
Cc1ccc(-c2nc(CS(=O)CC(=O)N3CCN(c4ccccc4)CC3)c(C)o2)cc1 (stereo not drawn),-1.2%,6.0%&13.7%,x,0.3%
Cc1nnc(SCC(=O)Nc2ncc3c(n2)CC(C)(C)CC3=O)s1,20.7%,1.5%,u,-6.5%
CC(C(=O)N1CCc2ccccc21)n1cnc2c1c(=O)n(C)c(=O)n2C (stereo not drawn),-7.0%,x,x,-1.0%
Cc1cccc(NC(=O)C2CCN(C(=O)NCc3ccccc3)CC2)c1C,-12.5%,12.5%,x,-6.0%
CC1(C)CC(=O)C=C(N2CCN(C3=CC(=O)CC(C)(C)C3)CC2)C1,x,1.5%,-14.1,x
COc1cc(/C=C/C(=O)OCC(=O)N2CCCC2)ccc1OCC#N,-26.1%,x,x,0.3%
CCOC(=O)c1c(C)[nH]c(C)c1C(=O)CN1C(=O)NC(CC(C)C)C1=O (stereo not drawn),5.6%,-4.6%,-0.1,2.7%
Cc1ccc(C(OCC(O)CNCc2ccc(F)cc2)c2ccccc2)cc1 (stereo not drawn),-2.9%,25.0%,x,7.3%
CN(C)CCCN(C(=O)C1COc2ccccc2O1)c1nc2ccc(F)cc2s1 (stereo not drawn),-7.8%,-15.0%,2.3,5.2%
Cc1ccc(S(=O)(=O)NC(=O)Nc2cc(C(C)(C)C)on2)cc1,-12.4%,-3.2%,5.7,-0.5%
COc1ccc(OCC(=O)NNC(=O)CCc2ccccc2)cc1,-13.7%,-1.1%,8.1,1.8%
CS(=O)(=O)N(CC(=O)NCc1ccco1)c1ccccc1Cl,8.4%,-1.8%,3.2,1.5%
Cc1ccc(C)c(OCC(O)CN2C(C)CCCC2C)c1 (stereo not drawn),0.3%,-5.0%,5.5,0.5%
Cc1cc(C)c(S(=O)(=O)c2ccccc2C)c(Cl)n1,10.5%,-1.1%,-9.3,-0.8%
CCOC(=O)N1CCN(C(=O)c2ccc3c(=O)n(Cc4ccc(Cl)cc4)c(=S)[nH]c3c2)CC1,2.8%,-1.8%,-7.6,-0.1%
O=C(CCNC(=O)N1CC(=O)Nc2ccccc21)NCc1ccc(F)cc1,2.0%,2.2%,x,1.3%
Nc1nc(NCc2ccccc2)nc(Nc2cccc(F)c2)c1[N+](=O)[O-],10.1%,-5.4%,7.5,-0.1%
C=CCn1c(-c2sccc2C)n[nH]c1=S,-1.0%,-2.3%,0.9,-0.7%
Cc1cc(C)c2[nH]c3nc(SCC(=O)O)nnc3c2c1,-0.9%,-11.3%,x,-0.8%
C=CCN1C(=O)C(O)(CC(=O)c2ccco2)c2cc(Br)ccc21 (stereo not drawn),-12.6%,27.6%,13.8,-1.7%
O=[N+]([O-])c1ccc(COc2cccnc2)cc1,1.0%,-22.3%,-2.2,-0.9%
CCCC1=NN2C(=N)/C(=C\c3cc(C)n(Cc4ccccc4)c3C)C(=O)N=C2S1,u,-3.9%,-13.6,u
c1ccc(CCc2ccncc2)cc1,-13.7%,-1.1%,x,-5.8%
CCCS(=O)(=O)N1CCc2ccc(NC(=O)c3ccccc3Cl)cc2C1,7.4%,-22.8%,x,4.9%
CCC(=O)N1CCc2cc(S(=O)(=O)CCC(=O)NCc3cccs3)ccc21,-8.0%,1.5%,2.5,2.8%
O=C(CN1C(=O)CCS(=O)(=O)c2ccccc21)NCc1ccccc1,17.9%,-0.8%,-20.4,0.3%
Cc1ccc(S(=O)(=O)NCC(=O)N(CC(=O)NCC2CCCO2)C2CCCC2)cc1 (stereo not drawn),4.5%,-2.5%,3.2,4.9%
COC(=O)C1=C(N)OC2=C(C(=O)CCC2)C1c1cccnc1 (stereo not drawn),1.3%,1.7%,6.1,1.2%
# (next part)
SMILES,Rango dissoc inh,miR-21 reporter,GLA inh pH 4.5,Rango complex inh
CCOc1ccc(C(=O)Nc2nnc(C)s2)cc1OCC,0.6%,-10.0%,-2.2,1.1%
COc1ccccc1N(CC(=O)Nc1c(C)n(C)n(-c2ccccc2)c1=O)S(=O)(=O)c1ccc(C)cc1,-4.9%,-2.2%,0.9,u
CCOC(=O)c1c(C)[nH]c(C)c1S(=O)(=O)N(C)CC(=O)Nc1cccc(C)c1,-4.8%,-7.8%,x,-0.9%
O=C1NC(=Nc2ccc(F)cc2)CS1,0.8%,-3.8%,0.9,-3.4%
O=C(CCl)Nc1cccc(Oc2cnccn2)c1,-3.3%,u,x,-0.6%
CNC(=O)COC(=O)c1[nH]c(C)c(C(C)=O)c1C,12.4%,-2.3%,-0.4,1.3%
Cc1cc(C(=O)NNS(=O)(=O)c2ccc(C(C)(C)C)cc2)nn1C(C)(C)C,-17.1%,-2.6%,1.4,u
CCc1ccc(N2C(=O)C3C4C=CC(CC4)C3C2=O)cc1 (stereo not drawn),-7.7%,-17.8%,x,0.1%
COC(=O)c1ccc(-c2ccco2)n1Cc1cccc(C)c1,10.3%,-9.1%,2.4,-0.3%
CC(NC(=O)c1cc(COc2ccc3ncccc3c2)on1)c1ccc(F)cc1 (stereo not drawn),-3.1%,22.7%,-5.9,0.0%

# Compound profiles, as listed above. Screens in order: Rango dissoc inh	miR-21 reporter	GLA inh pH 4.5	Rango complex inh
# Record of COC(=O)c1ccc(-c2ccco2)n1Cc1cccc(C)c1 = 10.3%	-9.1%	2.4	-0.3%
# Record of CCOc1ccc(C(=O)Nc2nnc(C)s2)cc1OCC = 0.6%	-10.0%	-2.2	1.1%
# Record of CCc1ccc(N2C(=O)C3C4C=CC(CC4)C3C2=O)cc1 (stereo not drawn) = -7.7%	-17.8%	x	0.1%
# Record of Cc1cc(C(=O)NNS(=O)(=O)c2ccc(C(C)(C)C)cc2)nn1C(C)(C)C = -17.1%	-2.6%	1.4	u

# Molecules shown so far with two or more sulfur atoms (4):
SMILES,Rango dissoc inh,miR-21 reporter,GLA inh pH 4.5,Rango complex inh
O=S(=O)(NCC1CCCO1)c1ccc(S(=O)(=O)N(Cc2ccc(F)cc2)Cc2ccco2)cc1 (stereo not drawn),3.8%,-6.5%,-2.5,0.6%
Cc1nnc(SCC(=O)Nc2ncc3c(n2)CC(C)(C)CC3=O)s1,20.7%,1.5%,u,-6.5%
C=CCn1c(-c2sccc2C)n[nH]c1=S,-1.0%,-2.3%,0.9,-0.7%
CCC(=O)N1CCc2cc(S(=O)(=O)CCC(=O)NCc3cccs3)ccc21,-8.0%,1.5%,2.5,2.8%

# Later entries.
SMILES,Rango dissoc inh,miR-21 reporter,GLA inh pH 4.5,Rango complex inh
Cc1occc1-c1nnc(SCC(=O)O)n1-c1ccccc1,-3.0%,0.0%,7.9,-1.9%
COCCCNC(=O)CN1C(=O)COc2ccc(S(=O)(=O)N3CC(C)CC(C)C3)cc21 (stereo not drawn),6.1%,-3.8%,x,-2.0%
CS(=O)(=O)c1ccc(C(=O)N2CCN(S(=O)(=O)c3ccc(C4CCCCC4)cc3)CC2)cc1,-0.6%,x,x,0.4%
CC(=O)c1ccc(NC(=O)NNS(=O)(=O)c2ccc(F)cc2)cc1,9.2%,-13.1%,x,0.5%
O=C(CC(c1ccccc1)c1ccccc1O)NCc1ccco1 (stereo not drawn),0.3%,-3.2%,5.3,7.3%
C/C(=N\Nc1ccccc1[N+](=O)[O-])c1ccccc1O,-11.0%,-41.4%,x,4.9%
C/C(Cl)=C/Cn1c(SC(C)C)nc2c1c(=O)[nH]c(=O)n2C,10.7%,-14.0%,2.0,0.8%
CCOc1ccc(S(=O)(=O)c2cn(C)c3cc(OC)c(OC)cc3c2=O)cc1,-0.5%,4.5%,x,-0.6%
Cc1nnc(SCC(=O)NCC(=O)Nc2ccc(F)c(F)c2F)n1Cc1ccccc1,u,1.8%,-6.2,0.8%
CCN(CC)S(=O)(=O)c1cc(NC(=O)CCNC(=O)c2ccco2)ccc1C,16.6%,2.0%,x,1.9%
O=C(Cc1cccc([N+](=O)[O-])c1)Nc1cccc(C(=O)N2CCCC2)c1,-15.1%,x,x,-0.5%
COc1ccc(C2C(C(C)=O)=C(Nc3ccccc3)CC(C)(O)C2C(C)=O)cc1OC (stereo not drawn),-15.4%,-20.0%,2.7,u
Cc1ccccc1CN1CCN(S(=O)(=O)c2cccc3nsnc23)CC1,u,0.7%,x,-6.9%
COc1ccc(S(=O)(=O)C(C#N)c2nc3ccccc3nc2N2CCCCC2)cc1 (stereo not drawn),u,-9.4%,-0.1,u
O=P(c1cccs1)(c1cccs1)c1cccs1,-8.0%,-8.7%,-1.9,2.6%
CNc1nc(SCc2ccccc2)nc(N2CCOCC2)n1,-15.4%,-20.1%,1.8,-5.6%
CC1CCN(CC(=O)N2c3ccccc3CC2C)CC1 (stereo not drawn),25.0%,-4.9%,4.8,u
CC1CCCC(n2c(=S)[nH]c3ccccc3c2=O)C1C (stereo not drawn),16.4%,27.2%,-17.8,u
Cc1noc(C)c1NC(=O)N(C)C[C@H]1Oc2ccc(NC(=O)Nc3ccccc3)cc2C(=O)N([C@H](C)CO)C[C@@H]1C,-16.7%,x,x,4.3%
COc1ccc(/C=N/NC(=O)c2cccc(NC(=O)c3ccc(Cl)cc3)c2)c(OC)c1,-2.5%,-26.4%,-8.8,0.7%
COc1ccccc1NC(=O)C1CCN(S(C)(=O)=O)CC1,14.6%,2.2%,x,0.6%
O=c1n(Cc2ccccc2)nc2n1-c1ccccc1SC2,-0.1%,-54.6%,-1.1,-2.4%
CC(NC(=O)c1ccnn1C)C1CCCO1 (stereo not drawn),0.2%,3.2%,-12.0,0.5%
O=C(NC1CC1)C1CCCN1S(=O)(=O)c1ccc2ccccc2c1 (stereo not drawn),8.2%,17.8%,6.8,0.4%
